Screens deposited in PubChem by several laboratories.
Bead autofluor – counter-screen for toxin protease inhibitors: compound fluorescence; fluorescence intensity (concentration not given with the values); 360,000 tested, 3.1% active; compound autofluorescence counterscreen, microsphere flow cytometry; hits give high values;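 active = at least 3 SD above the mean of all compounds, about 16000 in these data; inconclusive = too few beads counted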;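 note: 100 nL of 1 mM stock went into each well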
RN4220 kill – kills Staphylococcus aureus RN4220; inhibition, % (test concentration not listed); 330,000 tested, 0.33% active; AID 1259311; S. aureus RN4220 growth, OD600, 16 h;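 active = z-score of -3 or lower and OD600 up to 0.18 on both plates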;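 note: plate controls were untreated cells for no effect and reference antibiotic for full effect; stock transfer was 100 nL into about 80 µL; one replicate is shown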
PrP 5UTR inh – suppresses PrP 5' UTR mRNA reporter expression; cell-based PrP 5' UTR mRNA reporter, plate reader; inhibition, % (test concentration not listed); 340,000 tested, 0.35% active;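 active = every replicate at 50% or more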;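 note: 0 = median of the neutral control wells; tested in H4 reporter cells; numbers are from one replicate; inactives centre near -14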
Mtb hypoxia inh – inhibitors of hypoxia-regulated fluorescent reporter in Mycobacterium tuberculosis; 300,000 tested, 0.1% active; AID 1159583; M. tuberculosis hypoxia-regulated fluorescent reporter, fluorescence; fluorescence inhibition, % (no concentration beside the values);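 active = 35 to 45% if threefold the growth effect, above 45% if 1.5-fold the growth effect; inactive = the rest, general growth blockers included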;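 note: wells of about 50 µL received 100 nL stock; 0% = vehicle wells and 100% = reference inhibitor wells; whole bacteria with a GFP reporter of the hypoxia response; strong numbers were not always called active; many hits fall short of the cut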
ugtP null kill – kills S. aureus RN4220 lacking UgtP | S. aureus RN4220 ugtP deletion, OD600 growth, 16 h; some inactives read as strong as hits | growth inhibition, % (concentration not given with the values) | 330,000 tested, 0.54% active | AID 1259309;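 active = z-score under -3 and OD600 up to 0.15 on both plates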;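 note: plate controls were untreated wells for no effect and antibiotic for full effect; wells of about 80 µL received 100 nL stock; the first replicate is given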
BJeLR viability – kills HRASV12-expressing BJeLR cells. BJeLR (HRASV12) viability, CellTiter-Glo ATP luminescence, 48 h; reference of the scale not given here. inhibition, % (no concentration beside the values). 300,000 tested, 0.17% active. AID 1554;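 active = replicate mean above 50%; inconclusive = above 50% but judged a plate artefact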;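 note: 50 nL library stock added to about 25 µL; numbers are from one replicate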
Mtb hypoxia inh growth – recorded beside Mtb hypoxia inh, whose call it bears; growth inhibition, %; measured here: M. tuberculosis growth (absorbance);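 0% = vehicle and 100% = reference antibiotic; read after six days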
An asterisk follows results filed as active; ? = inconclusive; . = no result given.

SMILES	Bead autofluor	RN4220 kill	PrP 5UTR inh	Mtb hypoxia inh	Mtb hypoxia inh growth	ugtP null kill	BJeLR viability
O=C(NCc1cccc(Cl)c1)c1ccc2nc(N3CCOCC3)sc2c1	5975	-1.2	-13.3	-3.8	7.5	1.9	7.1
O=C(CCS(=O)(=O)c1ccc2c(c1)NC(=O)CS2)NCc1cccs1	5681	-1.5	-6.2	-3.8	11.8	1.5	1.4
CCCOc1ccccc1NC(=O)/C=C/C(N)=O	9601	17.3	-18.1	8.5	12.6	51.7	-8.7
COc1cccc(-c2nc3ccc(N4CCN(C)CC4)cc3[nH]2)c1	3339	1.1	49.0	5.6	1.1	1.7	-5.6
CS(=O)(=O)c1ccc(C(=O)Nc2ccc(N3CCCC3)cc2)c(Cl)c1	4439	12.6	-18.8	7.7	4.4	12.3	2.0
O=C1CCCC2=C1C(c1ccco1)Nc1ccc(C(=O)c3ccccc3)cc1N2 (stereo unspecified)	3055	-16.8	-28.2	-0.2	2.8	-19.9	-1.6
Cc1ccc(C(=O)Nc2nc3ccccc3[nH]2)cc1	6577	6.1	61.1*	-1.8	-11.3	0.8	25.0
Cc1c(N=C2SCC(=O)N2N=Cc2ccccc2)c(=O)n(-c2ccccc2)n1C	.	-2.1	.	1.6	1.5	4.6	.
Cc1ccc2c(c1)C(CCN)C(=O)N2Cc1ccccc1 (stereo unspecified)	2565	-9.9	-3.4	12.6	14.1	-12.4	-2.2
O=C(CSc1ccc(F)cc1)Nc1ccc(N2CCOCC2)c(Cl)c1	6563	-3.2	-10.0	0.1	2.9	2.6	4.4
COc1ccc(OCC(=O)Nc2ccc3c(c2)nc(CCN2CCCCC2)n3C)cc1	5494	4.9	-7.0	10.8	0.6	9.9	3.7
COc1cc(CO)ccc1OCC(=O)N1CCc2ccccc21	4963	3.0	-36.1	3.2	10.2	10.1	-1.9
C[C@@]12C(=O)N(c3cccc(F)c3)C(=O)N1C(c1ccc(Cl)cc1)C1C(=O)N(C3CCCCC3)C(=O)C12 (stereo partly specified)	.	-3.9	.	5.2	2.2	-7.7	.
COc1ccc(Br)cc1/C=N/n1c(C)nnc1C	2508	.	-1.9	.	.	.	-3.6
CN(C(=O)/C=C/c1ccccc1)C1CCCCC1	4057	5.6	.	.	.	-3.2	-3.3
O=c1cc(CN2CCN(S(=O)(=O)c3ccc4ccccc4c3)CC2)nc2sccn12	4240	6.7	-12.3	-2.0	-2.8	3.4	11.2
O=C(Cc1c(F)cccc1Cl)NNC(=O)c1ccc(Br)s1	4066	1.6	-2.7	-2.4	7.9	-1.2	.
COc1ccc(OCC(O)CNS(=O)(=O)c2cccc(Cl)c2)cc1 (stereo unspecified)	3871	4.5	.	-2.5	5.4	5.3	0.2
O=c1c2c3c(sc2ncn1/N=C/c1cccnc1)CCCC3	4005	.	13.4	.	.	.	0.9
CC1CCCCC12NC(=O)N(CC(=O)N1CCN(S(=O)(=O)Cc3ccccc3)CC1)C2=O (stereo unspecified)	?	2.2	0.9	-6.6	2.5	0.2	.
COc1cc(NC(=O)NCc2ccco2)ccc1-c1ccc(NC(=O)NCc2ccco2)cc1OC	3782	3.7	-17.9	16.7	8.9	2.9	.
CC1=NN(C(=O)COc2ccc(C)c(C)c2)C(O)(c2ccc(Cl)cc2)C1 (stereo unspecified)	2197	5.3	-10.3	8.4	1.4	3.8	-10.4
Cc1cc(=O)[nH]c(NN=Cc2ccccn2)n1	.	5.2	.	14.1	-2.0	4.3	.
COc1ccc(C(=O)N=C2SC3CS(=O)(=O)CC3N2c2ccccc2)cc1OC (stereo unspecified)	5774	0.3	-12.0	5.4	3.8	-0.2	0.2
O=C(CSc1nnc(C2COc3ccccc3O2)o1)N1CCCC1 (stereo unspecified)	3252	3.9	-15.0	23.5	0.2	7.6	-3.0

The last 5 compounds of the section before are carried over, then new ones follow.
SMILES	Bead autofluor	RN4220 kill	PrP 5UTR inh	Mtb hypoxia inh	Mtb hypoxia inh growth	ugtP null kill	BJeLR viability
COc1cc(NC(=O)NCc2ccco2)ccc1-c1ccc(NC(=O)NCc2ccco2)cc1OC	3782	3.7	-17.9	16.7	8.9	2.9	.
CC1=NN(C(=O)COc2ccc(C)c(C)c2)C(O)(c2ccc(Cl)cc2)C1 (stereo unspecified)	2197	5.3	-10.3	8.4	1.4	3.8	-10.4
Cc1cc(=O)[nH]c(NN=Cc2ccccn2)n1	.	5.2	.	14.1	-2.0	4.3	.
COc1ccc(C(=O)N=C2SC3CS(=O)(=O)CC3N2c2ccccc2)cc1OC (stereo unspecified)	5774	0.3	-12.0	5.4	3.8	-0.2	0.2
O=C(CSc1nnc(C2COc3ccccc3O2)o1)N1CCCC1 (stereo unspecified)	3252	3.9	-15.0	23.5	0.2	7.6	-3.0
COC(=O)[C@@H](NC(=O)Nc1ccc(OC(F)(F)F)cc1)C(C)C	4174	-11.6	-17.7	15.8	3.3	-1.0	-4.4
Cc1[nH]c(=O)c(C#N)c(C)c1CCC(=O)NCc1cccc(C(F)(F)F)c1	3467	3.4	-3.8	-6.4	-3.3	2.2	-8.2
O=[N+]([O-])c1ccc(C=Nn2cn[nH]c2=S)cc1	.	5.2	.	-9.2	2.0	2.4	.
CCOC(=O)c1nnn(-c2nonc2N)c1COc1ccc(F)cc1	10879	5.5	-16.0	1.2	4.5	1.2	4.1
O=C(Nc1cccc(F)c1)c1ccc(S(=O)(=O)NCC2CCCO2)cc1 (stereo unspecified)	4007	-2.2	-10.0	-4.6	1.4	-10.1	0.5
CCc1cc(=O)[nH]c(SCC(=O)Nc2ccc3c(c2)OCCO3)n1	.	3.5	-13.1	9.7	-2.5	8.0	0.3
O=C(NN=Cc1ccc(OC2CSC2)cc1)c1ccccc1	.	4.3	.	5.5	4.6	-3.2	.
COc1ccc(CC(=O)NCc2nnc(SCC(=O)Nc3nccs3)n2-c2ccccc2)cc1	5335	5.1	-19.3	5.7	2.6	3.0	-6.0
COc1ccccc1N1CC(O)=C(c2nc3ccccc3c(=O)[nH]2)C1=N	12895	1.9	-17.9	16.4	10.6	-7.0	-11.8
O=c1[nH]c(/C=C\c2ccc(O)cc2)nc(O)c1[N+](=O)[O-]	3856	2.2	-13.4	-8.5	-6.9	4.6	1.5
Cc1ccsc1/C=N/NC(=O)C(N)=O	3922	.	-30.6	.	.	.	7.3
COc1cccc(C(=O)N[C@@H](CCSC)c2nc3ccccc3[nH]2)c1	4537	2.5	-22.8	13.7	-0.2	7.2	-5.3
O=C(NNC(=O)c1ccccc1C(=O)O)c1ccc(O)cc1	4578	5.0	-18.4	12.4	-2.5	-1.2	-4.4
CC(C)N(Cc1ccccc1)C(=O)c1cccs1	3760	1.1	-0.5	17.2	9.6	3.7	-7.5
Cc1ccccc1NC1=C(Cl)C(=O)OC1OC(=O)c1ccccc1C (stereo unspecified)	2951	-2.2	-10.1	2.9	1.3	-11.6	-8.0
O=C(CCNS(=O)(=O)c1ccccc1)N1CCCCCC1	5042	0.7	-9.7	13.8	6.3	4.6	4.8
O=C(COC(=O)c1ccc(Cl)cc1)NC(=O)NC1CCCC1	?	0.7	1.4	7.6	4.4	-1.3	.
O=C(CSc1cccc2cccc(Cl)c12)OCC(=O)N1CCN(C(=O)c2ccco2)CC1	6484	2.1	-6.0	3.1	1.8	-2.2	7.1
Cc1nc(N2CCN(S(=O)(=O)c3ccccc3)CC2)c2cc(-c3ccccc3)sc2n1	3075	.	-34.5	.	.	.	-6.5
CC(/C=C1\SC(=S)N(CCC(=O)Nc2nc(C)cs2)C1=O)=C\c1ccccc1	4882	3.7	-23.7	10.1	2.5	-0.2	-17.6
CC(C)(C)OC(=O)N1CCC(NC(=O)c2nc[nH]c2C(=O)NCc2ccccc2)CC1	6588	5.0	-7.1	4.8	6.8	-3.8	.
COc1cc(CN2CCC(C(=O)N3CCN(c4ccccc4F)CC3)CC2)cc(OC)c1O	7670	5.5	-18.5	-0.3	0.1	13.3	1.4
CCOc1cc(C2C(C#N)=C(N)OC3CCCC(=O)C32)ccc1OCCN1CCOCC1 (stereo unspecified)	4713	-1.0	-16.1	.	.	1.0	1.7
CCCc1cc(=O)oc2c3c(cc(OCC(=O)NCCCn4ccnc4)c12)OC(C)(C)CC3	5815	-0.1	-9.0	.	.	0.9	4.7
CC(C)(C)C(=O)Nc1c(Cl)cccc1OC(F)(F)F	4140	4.5	-14.5	11.9	13.0	12.2	8.7

Additional structures.
SMILES	Bead autofluor	RN4220 kill	PrP 5UTR inh	Mtb hypoxia inh	Mtb hypoxia inh growth	ugtP null kill	BJeLR viability
CCOC(=O)Cc1csc(N/N=C\c2ccc(N(C)C)cc2)n1	2911	.	-28.0	.	.	.	6.1
C/C(=N\NC(=S)NCCc1ccccc1)c1ccc(O)cc1O	3520	.	1.1	.	.	.	-4.2
COc1ccc(N(CC(=O)NCCSCc2ccco2)S(=O)(=O)c2ccccc2)cc1	3763	0.5	-19.5	-0.8	7.0	3.1	-2.6
COc1cccc(Cn2cccc(NC(=O)Nc3ccc(C#N)cc3)c2=O)c1	4420	1.2	-4.0	7.7	15.3	-13.6	-0.8
Cc1c(C(=O)OC(C)C)sc2nc[nH]c(=O)c12	12629	7.3	-0.6	0.9	4.6	-0.6	0.2
Cc1ccc(C(=O)O/N=C(/c2nonc2N)N(C)C)cc1	4090	.	5.2	.	.	.	5.4
CCOC(=O)c1cc(CC)sc1NC(=O)c1cc(OC)c(OC)c(OC)c1	4725	-2.7	-2.4	.	.	0.2	2.7
CCc1ccc(NC(=O)COC(=O)CCC2CCCC2)cc1	3762	5.7	-2.9	10.7	2.9	2.5	.
O=C(O)c1ccc(CN(c2ccccc2)S(=O)(=O)c2ccccc2)cc1	6730	5.7	-7.2	18.3	7.0	7.6	0.7
O=S(=O)(NCCSc1nnc(-c2ccco2)n1-c1ccccc1)c1ccccc1	2478	1.6	-19.1	.	.	0.3	-0.3
N#Cc1ccccc1S(=O)(=O)N1CCN(C(=O)CCc2ccccc2)CC1	3530	1.5	-26.9	2.1	6.7	-0.2	.
N#Cc1c(N)n(-c2cccc(C(=O)O)c2)c2nc3ccccc3nc12	3655	3.3	-2.8	13.2	8.8	7.7	3.4
CCc1nnc(NC(=O)CCC(=O)N2CCN(Cc3cc(Cl)ccc3OC)CC2)s1	2410	-8.4	-26.9	14.3	2.4	1.9	-0.4
CC(=O)Nc1ccc(NC(=O)C(C)OC(=O)CCCN=C2NS(=O)(=O)c3ccccc32)cc1 (stereo unspecified)	5309	3.1	-12.8	8.1	-4.9	1.9	-1.0
O=C(Cn1ncc2c3ccccc3n(Cc3ccccc3)c2c1=O)NCc1ccco1	4217	1.1	-24.7	2.4	-0.3	1.7	6.3
OC(=Cc1ccc2ccccc2n1)c1ccncc1	.	9.4	.	-4.9	4.0	5.1	.
Cc1cccc(NC(=S)Nc2ccccn2)c1C	2065	1.6	-32.2	.	.	6.4	-7.1
Cc1occc1C(=O)N1CCN(C(=O)C2CCCO2)CC1 (stereo unspecified)	7927	2.3	-2.7	-5.4	-3.1	7.2	9.4
c1ccc2c(c1)CSc1sccc1C2=C1CCNCC1	2612	5.4	-5.3	18.5	5.2	7.8	-0.5
Cc1cccc(NC(=O)Cn2c(=O)n(C)c3ccccc32)c1	2383	0.3	-18.1	.	.	-10.3	-3.6
CC(C)NC(=O)CSc1nncn1-c1ccccc1	3537	-1.1	1.9	7.4	5.1	-2.6	-1.8
O=S(=O)(NCC1CC1)c1cc(Cl)cc(Cl)c1	3799	4.4	-20.8	11.5	3.2	-1.9	4.7
Cc1cc(OCC(=O)NCc2cccnc2)c2c(C)cc(=O)oc2c1	4498	5.3	-0.6	7.8	2.0	11.0	-2.2
Cc1cccc(C(=O)ON=C2CCSc3ccc(C)cc32)c1	.	5.5	.	14.6	0.0	5.4	.
O=C(CN(Cc1cccs1)C(=O)CCC(=O)Nc1nccs1)NCc1ccccc1	10760	2.3	-17.6	5.5	2.2	3.2	-2.2
O=[N+]([O-])c1ccc(O)c(C=NNc2ncnc3c2cnn3-c2ccccc2)c1	.	-1.6	.	-7.5	-20.7	7.6	.
CC(=O)N1CCC(N(CCCOC(C)C)C(=O)Nc2ccc(C)c(C)c2)CC1	10569	4.3	-13.3	3.7	-0.2	7.7	3.0
CN(C)CCCN1C(=O)c2oc3ccc(F)cc3c(=O)c2C1c1cccnc1 (stereo unspecified)	5537	2.4	-3.6	-1.2	4.5	-0.3	6.6
COc1ccc(/C=N/n2c(SC)nnc(C(C)(C)C)c2=O)cc1OC	4246	.	-39.8	.	.	.	11.3
